# Screening results from PubChem.
# miR-21 FLuc: miR-21 reporter, rising signal | Potency, µM (titrated, usually from 38.3 µM), inactives show at the top dose reporter change, positive = more light | 340,000 tested, under 10 active | HeLa miR-21 FLuc reporter, luciferase, 48 h; active = well fitted rising curve with a large enough effect; inconclusive = small, poorly fitted or top-dose-only effect; inactive = no such curve, though single readings can be large or run the other way;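 also: % of control where 0% means no effect; miR-21 action dims this reporter so a rising signal means less miR-21 action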
#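 HeLa cells endogenously expressing miR-21, stably carrying CMV-driven firefly luciferase with a downstream miR-21 binding site, 2000 cells/well. Titrations up to approximately 40 uM, 48 hours; luciferase luminescence read.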
# Rango dissoc inh: inhibitors of RanGTP-induced Rango-importin beta complex dissociation; O95149+P62826; AID 540253; Potency, µM (top dose mostly 46.1 µM), inactives show top-dose activity change, negative = inhibition; Biochemical FRET Rango-importin beta, RanGTP-induced dissociation; hit rate 0.071% among 340,000; active means falling FRET ratio curve, often poorly fitted, with flat reads before Ran was added; inconclusive means other falling curves, or compound fluorescence or quenching; inactive means flat or rising ratio curve;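 also: potency is read from the fitted curve at half-maximal effect; % of control where 0% means no effect; nearly all actives have a fitted effect of over 45% in size; -100% = wells without RanGTP and RCC1; the record marks most hits as doubtful in a second field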
#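 Quantitative HTS using a FRET biosensor: 0.1 uM Rango, 0.25 uM importin beta, 0.6 uM Ran, 2 mM GTP, 0.2 uM RCC1 final, PBS with DTT, Tween-20 and BSA. Post-read taken 45 min after Ran addition.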
# GLA inh pH 4.5: inhibitors of human alpha-galactosidase A at pH 4.5; 230,000 tested, under 10 active; purified enzyme, 4-MU-alpha-Gal fluorescence, pH 4.5; activity change, negative = inhibition, % at 105 µM; P06280; inconclusive = small, poorly fitted or top-dose-only inhibition, or a rising curve; inactive = flat fitted curve, though single readings scatter; no compound was filed as active;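 also: 0% = full activity with enzyme and -100% = basal without enzyme; dose as in the result columns while the protocol names 77 µM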
# Rango complex inh: inhibitors of Rango-importin beta complex formation; AID 540263; Rango CFP/YFP FRET sensor + importin beta, 45 min; hit rate 0.031% among 340,000; Potency, µM (series often up to 92.2 µM), inactives show top-dose inhibition of complex formation; active = rising FRET ratio curve, often small or poorly fitted; inconclusive = mostly compound fluorescence or quenching in the first reads; inactive = flat curves in all reads;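 also: potency is read from the fitted curve at half-maximal effect; 0% = DMSO wells and 100% = buffer wells lacking importin beta; nearly all actives have a fitted effect of over 15% in size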
# Target sequence (Q14974 whole entry, looked up): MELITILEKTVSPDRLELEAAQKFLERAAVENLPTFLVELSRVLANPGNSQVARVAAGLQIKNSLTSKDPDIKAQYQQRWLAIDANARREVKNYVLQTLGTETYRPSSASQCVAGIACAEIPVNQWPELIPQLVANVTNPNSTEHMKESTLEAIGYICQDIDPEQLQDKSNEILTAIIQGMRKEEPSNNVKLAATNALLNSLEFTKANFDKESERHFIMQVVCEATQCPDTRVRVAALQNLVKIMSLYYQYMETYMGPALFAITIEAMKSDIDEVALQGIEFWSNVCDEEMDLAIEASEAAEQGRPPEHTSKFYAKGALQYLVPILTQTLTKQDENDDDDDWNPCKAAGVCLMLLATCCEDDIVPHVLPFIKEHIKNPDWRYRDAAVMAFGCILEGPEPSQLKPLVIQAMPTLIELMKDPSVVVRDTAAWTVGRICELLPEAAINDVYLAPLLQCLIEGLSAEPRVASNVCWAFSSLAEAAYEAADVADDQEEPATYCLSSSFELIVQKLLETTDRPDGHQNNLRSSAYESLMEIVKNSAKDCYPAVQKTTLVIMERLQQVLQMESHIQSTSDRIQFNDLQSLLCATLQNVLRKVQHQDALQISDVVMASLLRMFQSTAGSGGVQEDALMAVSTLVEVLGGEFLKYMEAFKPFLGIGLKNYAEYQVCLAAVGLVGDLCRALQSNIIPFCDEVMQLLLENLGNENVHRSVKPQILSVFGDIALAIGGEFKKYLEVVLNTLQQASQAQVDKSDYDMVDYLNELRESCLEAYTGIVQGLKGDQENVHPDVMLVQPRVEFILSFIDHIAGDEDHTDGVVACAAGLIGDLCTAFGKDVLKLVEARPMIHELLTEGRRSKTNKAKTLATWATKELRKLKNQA
#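 Inhibition scored from the CFP 486 nm/YFP 530 nm FRET ratio 45 min after adding 0.125 microM importin beta to 50 nM Rango biosensor preincubated 5 min with compound (room temperature, PBS with DTT, Tween-20, BSA). No-importin wells as positive control.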
# Numbers without * were called inactive; ? = inconclusive; / = no result given. A portion of the library; count on the stated rates, not on these rows.
# Value order – miR-21 FLuc, Rango dissoc inh, GLA inh pH 4.5, Rango complex inh
1) COc1ccc(NC(=O)C(C)N2c3cccc4cccc(c34)S2(=O)=O)c(OC)c1 (configuration not stated)
    -13%, 3%, /, -0.7%
2) CCCS(=O)(=O)N1CCCC(c2nc(-c3cccc(OC)c3)no2)C1 (configuration not stated)
    -36%, -3%, 0, 1.0%
3) COc1ccc2oc(=O)c(C(=O)NCc3ccc4c(c3)OCO4)cc2c1
    -5%, 23%, -9, -2.6%
4) CN(C(=S)NC(=O)c1ccc(Br)o1)c1ccccc1
    -15%, 0%, 4, -2.6%
5) O=C(NC1CCCc2ccccc21)C(Cc1ccccc1)NS(=O)(=O)c1cccs1 (configuration not stated)
    11%, 27%, 2, 2.7%
6) CC(/C=C1\N=C(SCc2ccccc2Cl)SC1=O)=C\c1ccccc1
    -4%, -21%, -2, 3.5%
7) CCC1(c2ccc(F)cc2)NC(=O)N(CC(=O)Nc2cccc(S(=O)(=O)N3CCCCC3)c2)C1=O (configuration not stated)
    /, -12%, /, -1.6%
8) Cc1nc2nc[nH]n2c(=O)c1CCOC(=O)c1ccccc1F
    2%, 0%, -3, 3.2%
9) CCN(CC(=O)NCc1ccc(Cl)cc1)C(=O)CSc1ccccc1F
    /, -23%, /, -4.5%
10) COc1ccccc1NC(=O)CC(=O)Nc1ccccc1OC
    -5%, -11%, /, -6.0%
11) COc1ccc(NC(=O)C2CCCN2C(=O)NCc2ccccc2)cc1 (configuration not stated)
    0%, -18%, 4, 1.1%
12) Cc1c(C(=O)NCC2CCCO2)oc2ccc(S(=O)(=O)N3CCCCC3)cc12 (configuration not stated)
    3%, ?, 6, 3.2%
13) Fc1cccc2sc(Nc3nc4c(F)cccc4s3)nc12
    -20%, -22%, 5, ?
14) COc1ccc(C2C(=O)N(C3CCCCC3)CC(=O)N2CC2COc3ccccc3O2)cc1 (configuration not stated)
    -4%, 0%, -16, 4.1%
15) NC(=O)C1CCN(Cc2nc3c(Br)cc(Br)cc3c(=O)[nH]2)CC1
    1%, -14%, 7, -1.8%
16) c1ccc(Nc2scc(-c3ccccc3)[n+]2Cc2ccco2)cc1
    -37%, 2%, -3, -0.7%
17) COC(=O)c1sc(NC(=O)c2ccco2)c(C#N)c1C
    1%, -18%, -2, ?
18) CC(C)CC(=O)NC1(C(F)(F)F)C(=O)Nc2c1c(=O)n(C)c(=O)n2C (configuration not stated)
    -4%, 8%, 4, 0.0%
19) COc1ccc(OC(=O)CCN2C(=O)C3C4C=CC(C4)C3C2=O)cc1 (configuration not stated)
    -10%, -8%, -23, 2.8%
20) COc1cc(OC)cc(C(=O)Nc2ccc3c(c2)COC3=O)c1
    -28%, -14%, -1, -4.4%
21) CCSc1ncnc2c1oc1ccccc12
    -20%, 17%, -2, 1.2%
22) O=C(OCCN1CCCCC1)c1cccc(F)c1
    -2%, 3%, /, -0.1%
23) COc1ccccc1N1CC(C(=O)Nc2ccc3c(c2)OCO3)CC1=O (configuration not stated)
    -4%, -10%, 4, 1.3%
24) Cn1c(=O)n(C)c2cc(S(=O)(=O)Nc3ccccc3)ccc21
    -3%, 1%, -2, 4.8%
25) O=[N+]([O-])/C(N=Nc1ccccc1)=N\Nc1ccccc1
    -16%, -5%, 7, 2.3%
26) Cc1ccc(-n2c(N)c(C#N)c(-c3ccc(Cl)cc3)c(C#N)c2=O)cc1
    -4%, -4%, 3, -0.4%
27) c1ccc(C(c2nnnn2C2CCCC2)N2CCN(c3ccccc3)CC2)cc1 (configuration not stated)
    -2%, 0%, -7, -4.7%
28) CC(C)C[C@H]1CNC(=S)N1CC1CCN(CCC23CC4CC(CC(C4)C2)C3)CC1
    /, -5%, /, -1.8%
29) O=c1[nH]c(CSc2nnc(-c3ccco3)n2-c2ccccc2)nc2sc3c(c12)CCC3
    0%, /, -5, /
30) S=C(Nc1ccc2c(c1)OCO2)N1CCN(Cc2ccco2)CC1
    -7%, 1%, 11, 0.4%
31) CCN(CC)C(=O)CCCC(=O)N(CC)CC
    0%, 13%, -3, 3.5%
32) O=C(CSc1nncn1-c1ccccc1)Nc1ccccc1F
    -1%, 1%, /, 0.7%
33) CC(=O)Nc1ccc(C=NNC(=O)C2CC2)cc1
    /, 23%, /, -2.1%
34) N#CC1C(=O)NC(c2ccccc2)=CC1c1ccccc1 (configuration not stated)
    /, -15%, /, 0.3%
35) Cc1ccccc1CS(=O)(=O)Cc1ccc(C(=O)NC2CCCC2)o1
    0%, -1%, /, 6.5%
36) CCC(C(=O)OC)n1c(-c2ccccc2)nc2ccccc2c1=O (configuration not stated)
    2%, 31%, -7, -0.2%
37) COC(=O)CS(=O)(=O)c1cccc2cccnc12
    -2%, 9%, 0, 0.0%
38) CCc1ccc(OCC(=O)OC(C)C(=O)NC2CC2)cc1 (configuration not stated)
    0%, 17%, /, -0.8%
39) CC12CCC(c3c1nc1ccccc1[n+]3[O-])C2(C)C (configuration not stated)
    -18%, 15%, 3, 0.0%
40) CC(C)(C)c1ccc(C(=O)C2CCCN(C(=O)CCn3cncn3)C2)cc1 (configuration not stated)
    -3%, -27%, /, 1.1%
41) C=C(C)c1sc(-c2ccc(Cl)cc2)nc1C
    /, -10%, /, 3.5%
42) COc1cc(/C=C/C(=O)N2CCN(c3n[nH]c(=O)[nH]c3=O)CC2)cc(OC)c1OC
    5%, 12%, 3, 3.9%
43) Cc1c(C(=O)N2CCCC2)sc(NC(=O)c2ccc(Cl)cc2)c1C#N
    -7%, ?, -2, ?
44) Cc1cc(C)cc(NC(=O)Cc2ccc(S(=O)(=O)N3CCCC3)s2)c1
    /, -11%, /, -0.7%
45) Cn1c(=O)c2c(nc(SCc3ccccc3)n2Cc2ccc(Cl)cc2)n(C)c1=O
    -1%, 1%, -13, -1.1%
46) CCCC12CN3CC(C)(CN(C1)C3c1ccc(OC(C)C)cc1)C2=O (configuration not stated)
    0%, -9%, -1, -5.3%
47) O=C(O)c1cnn(-c2nc(-c3ccc(Cl)cc3)cs2)c1C(F)(F)F
    -73%, 5%, /, 4.3%
48) Cn1c(C(=O)NCCN2CCCCCC2)cc2c(=O)n(C)c3ccccc3c21
    -12%, -13%, -25, -3.6%
49) Cc1cc(C)c2c(NC(=S)NC(=O)c3ccccc3)n[nH]c2n1
    -12%, 10%, 3, 4.4%
50) O=C1C(C=NCC2CCCO2)=C(O)c2ccccc21 (configuration not stated)
    -37%, 14%, -4, 3.3%

# 5 entries already listed, sorted by the number in miR-21 FLuc, rising:
# Value order – miR-21 FLuc, Rango dissoc inh, GLA inh pH 4.5, Rango complex inh
50) O=C1C(C=NCC2CCCO2)=C(O)c2ccccc21 (configuration not stated)
    -37%, 14%, -4, 3.3%
48) Cn1c(C(=O)NCCN2CCCCCC2)cc2c(=O)n(C)c3ccccc3c21
    -12%, -13%, -25, -3.6%
43) Cc1c(C(=O)N2CCCC2)sc(NC(=O)c2ccc(Cl)cc2)c1C#N
    -7%, ?, -2, ?
45) Cn1c(=O)c2c(nc(SCc3ccccc3)n2Cc2ccc(Cl)cc2)n(C)c1=O
    -1%, 1%, -13, -1.1%
46) CCCC12CN3CC(C)(CN(C1)C3c1ccc(OC(C)C)cc1)C2=O (configuration not stated)
    0%, -9%, -1, -5.3%

# New compounds follow:
# Value order – miR-21 FLuc, Rango dissoc inh, GLA inh pH 4.5, Rango complex inh
51) COc1ccc(CCNS(=O)(=O)c2cn(C)c(=O)n(C)c2=O)cc1
    2%, -8%, 6, 2.9%
52) Cc1ccc(N2CC(C(=O)Nc3cccc(C(=O)NC4CC4)c3)CC2=O)cc1 (configuration not stated)
    /, -9%, /, -2.4%
53) COc1ccc(C(c2nnnn2CCc2ccccc2)N2CCN(C3CCCC3)CC2)cc1OC (configuration not stated)
    -6%, 1%, 4, -1.3%
54) O=C(CN(C(=O)CCC(=O)Nc1nccs1)c1ccc2c(c1)OCO2)NCc1ccccc1
    -10%, -6%, /, 0.2%
55) CC(=O)c1cc2c(cc1NC(=O)CSc1nc3ccc(C)cc3[nH]1)OCO2
    -33%, 2%, 5, 0.7%
56) COC(=O)c1ccccc1NC(=O)C1CCN(C(=O)N2CCOc3ccccc32)CC1
    3%, 1%, /, 1.5%
57) CCCc1nc(SCC(=O)N2CCc3ccccc32)c2c(C)c(C)sc2n1
    0%, /, 5, /
58) Cc1cc(NC(=O)CN2CCN(S(=O)(=O)c3ccc4ccccc4c3)CC2)no1
    -3%, 1%, -3, -4.5%
59) CCOC(=O)C1=C(O)/C(=C/c2ccc(-c3ccccc3C(=O)O)o2)SC1=Nc1ccc(C)cc1
    28%, ?, 3, ?
60) COc1cc2c3c(c1)c(C1=NC(=S)NC1=O)c(O)n3C(C)(C)C=C2C
    -6%, -10%, 0, -3.5%
61) CCO[C@@H]1OC(C(=O)NC2CC2)=C[C@H](c2ccc(Br)cc2)[C@H]1CCCO
    3%, -15%, -12, 0.8%
62) CCCC1S/C(=N/N=C/c2ccc(OC)cc2)N(Cc2ccccc2)C1=O (configuration not stated)
    -14%, 3%, -3, 2.2%
63) O=C1CCCc2nc(N3CCN(C(=O)c4ccco4)CC3)ncc21
    -38%, -7%, /, -2.5%
64) CCOc1cc(S(=O)(=O)N(CC)CC)ccc1F
    -5%, 9%, 0, -0.4%
65) COc1cc(F)ccc1S(=O)(=O)N1CCN(Cc2ccccc2)CC1
    -5%, -10%, /, -1.8%
66) NC(=O)c1ccccc1N/C=C/C(=O)c1cccs1
    -70%, ?, -19, ?
67) Cc1nc(C)c(C(=O)C2=C(O)C(=O)N(CCN(C)C)C2c2cccs2)s1 (configuration not stated)
    -6%, -15%, -6, ?
68) O=C(CNC(=O)c1ccccc1)NCC(O)c1ccc([N+](=O)[O-])cc1 (configuration not stated)
    -6%, 3%, /, 0.5%
69) C=CCn1cc(/C=N/NC(=O)COc2cccc3cccnc23)c2ccccc21
    -16%, -15%, 0, 0.5%
70) Cn1cc(C(=O)C(=O)NCCc2ccccc2)c2ccccc21
    -33%, 14%, /, 1.0%
71) O=C(COC(=O)/C=C/c1cccc(C(F)(F)F)c1)NCCN1C(=O)CSC1=O
    /, 10%, /, 0.6%
72) COc1cccc(OCc2cc(C(=O)N(C)Cc3nccn3C)no2)c1
    -56%, 3%, /, -0.4%
73) O=C(c1ccco1)N1CCN(C(=O)C2CCN(S(=O)(=O)c3cnc[nH]3)CC2)CC1
    2%, 0%, -3, -4.4%
74) COc1ccc2cc(/C=N/NC(=O)CN(c3ccccc3C)S(=O)(=O)c3ccccc3)c(Cl)nc2c1
    -2%, -10%, -15, ?
75) c1ccc(C2CCC3(CC2)Oc2ccccc2C2CC(c4cccnc4)=NN23)cc1 (configuration not stated)
    -52%, /, 0, /
76) O=C(CCOc1ccccc1)N1CCN(S(=O)(=O)c2cccs2)CC1
    -12%, 1%, 7, 2.4%
77) COc1ccc(-n2c(Cc3cccn3C)nnc2SCC(=O)NCc2ccccc2Cl)cc1
    -8%, 5%, 7, -0.7%
78) Cc1ccc(-n2c(-c3cccc(C)c3)n[nH]c2=S)cc1
    -4%, -7%, 3, 3.5%
79) CCOC(=O)N1CCN(C(=O)CSc2ccc3nnc(CCNC(=O)c4ccc(OC)cc4)n3n2)CC1
    1%, 2%, 6, 9.6%
80) Cc1ccc(NC(=O)c2nc(C)n(-c3ccc([N+](=O)[O-])cc3)n2)cc1
    -7%, -15%, 5, -3.8%
81) O=C(NCc1ccc(Cl)cc1)NCc1ccc(Cl)cc1
    1%, -15%, 1, -1.2%
82) COc1cccc(-c2ncc3ccccc3c2COC(=O)N2CCCCC2)c1
    /, 7%, /, 3.1%
83) COc1ccc(NC(=O)Nc2cc(C)ccc2F)cc1
    -57%, -8%, 2, -1.0%
84) O=C(O)/C=C/C(=O)Nc1ccc(OC(F)(F)Cl)cc1
    6%, -22%, 10, 0.9%
85) N/C(=N\OC(=O)Nc1ccc(Cl)c(Cl)c1)c1ncc(C(F)(F)F)cc1Cl
    -4%, 2%, -2, -0.6%
86) N#Cc1ccc(S(=O)(=O)N2CCCN(c3nc4ccc(Cl)cc4s3)CC2)cc1
    -1%, 2%, 1, 1.8%
87) O=C(Cn1cc(C(=O)C2CC2)c2ccccc21)NCC1CCCO1 (configuration not stated)
    -9%, 21%, -1, 0.8%
88) CCc1ccc(OCCOCC(O)CNC2CCCC2)cc1 (configuration not stated)
    -8%, 0%, 4, 1.5%
89) COc1ccc(S(=O)(=O)N2CCOCC2)cc1NC(=O)COc1ccc2ccc(=O)oc2c1
    /, -1%, /, ?
